Bioassay records deposited in PubChem BioAssay by several laboratories.
MT1-MMP act inh – blocks activation of human MT1-MMP. P50281. HT1080 RFP-PRO-GFP cells, GFP/RFP ratio fluorescence, overnight; percent of plate control window, DMSO zero. GFP/RFP ratio change, % at 20 µM. 0.061% of 360,000 active. AID 651647;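 active = GFP/RFP ratio change of at least 30% with cell ATP level not reduced by more than half and red fluorescence within 50% of control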; note: strong numbers were not always called active
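Read-out: GFP/RFP fluorescence ratio; Test system: RFP-PRO-GFP reporter HT1080 cells; Compound dosing: single-point 20 µM compound, 1% DMSO; Times: overnight compound exposure at 37 °C.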
PABP FP inh – blocks human PABP binding to poly(A) RNA. inhibition, % at 35 µM. P11940. fluorescence polarization. 1% of 290,000 active;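 active = 50% or more with normal probe brightness, or confirmed in later tests; about a fifth of its hits are not listed in these tables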;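 note: calls also rest on retests at 20 µM and on dose response follow-up; controls were probe without protein and protein plus probe with vehicle; some compounds called inactive have numbers as strong as hits; many hits fall short of the cut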
eIF4H FP inh – inhibitors of RNA binding by human eIF4H; Q15056; eIF4H fluorescence polarization binding assay; inhibition, % at 35 µM; 0.94% of 290,000 active; AID 2012;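 active = 50% or more with normal probe brightness, or confirmed in later tests; about a fifth of its hits are not listed in these tables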;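 note: calls also rest on retests at 20 µM and on dose response follow-up; 0% = protein and probe with vehicle and 100% = probe without protein; strong numbers were not always called active; many hits fall short of the cut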
CSC inhib – cancer stem cell inhibition. cancer stem cell-like cells viability, luminescence. inhibition, % at 7.5 µM. 1.1% of 300,000 active. AID 2717;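 active = mean at 75% or more and at least half the replicates too; tested in HMLE shEcad cells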;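 note: 0% = median of negative and 100% = median of positive control wells; the first replicate is given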
UUG fidelity – alters start codon recognition fidelity in yeast | S. cerevisiae UUG-firefly luciferase reporter, luminescence/redox ratio | activity score, % at 18.7 µM | 0.13% of 350,000 active;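 active = replicate mean at a twofold rise or more, about +100% in these data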;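 note: firefly luciferase made from a UUG start codon reports start codon fidelity; reporter light over untreated wells divided by growth signal over untreated wells; some hits fall short of that in this replicate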
Env fusion inh – blocks HIV Env-driven cell-cell fusion; HeLa-JRFL Env/CEM21 cell fusion, luciferase; inhibition, % at 12.3 µM; 1.1% of 360,000 active;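 active = mean replicate inhibition score of at least 50 and every replicate individually at or above 50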;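 note: 0% = plate neutral controls and 100% = maraviroc near 300 nM; one replicate is shown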
Rce1 inhib – yeast Ras-converting enzyme inhibition; yeast membranes, quenched prenylated peptide cleavage fluorescence; calls only; 0.27% of 290,000 active; Q03530;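 active = fall in fluorescence gain of 50% or more versus controls, with final raw signal at or below 3038400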;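 note: plate controls were neutral control wells for no effect and wells lacking membranes for full effect; tested at 10 µM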
Target sequence (Q03530 whole entry, looked up): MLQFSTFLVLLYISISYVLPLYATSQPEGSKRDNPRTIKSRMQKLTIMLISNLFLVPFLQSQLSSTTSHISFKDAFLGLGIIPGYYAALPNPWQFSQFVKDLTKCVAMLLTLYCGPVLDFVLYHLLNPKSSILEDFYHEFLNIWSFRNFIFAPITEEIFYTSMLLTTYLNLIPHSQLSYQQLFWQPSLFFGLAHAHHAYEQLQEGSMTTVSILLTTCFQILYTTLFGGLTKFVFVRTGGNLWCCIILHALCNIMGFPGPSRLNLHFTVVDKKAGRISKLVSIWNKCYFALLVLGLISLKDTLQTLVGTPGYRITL
MT1-MMP act inh RFP – recorded beside MT1-MMP act inh, whose call it bears; RFP signal change, %; measured here: RFP expression control read;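 0 = vehicle wells; hits needed this value within 50% of zero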
An asterisk follows results filed as active; i = inactive; nt = no result given.

Compound	PABP FP inh	Env fusion inh	UUG fidelity	Rce1 inhib	CSC inhib	MT1-MMP act inh	eIF4H FP inh	MT1-MMP act inh RFP
CCCCn1c(N)c(N(CCOC)C(=O)c2ccc3c(c2)C(=O)N(c2ccccc2Cl)C3=O)c(=O)[nH]c1=O	nt	-6.1	2.4	nt	5.7	2.1	nt	1.5
COc1ccccc1NC(=O)Nc1nc(CC(=O)N2CCN(c3ccccc3OC)CC2)cs1	nt	2.5	-0.6	i	nt	4.8	nt	-3.1
O=C(CNC(=O)c1ccncc1)N/N=C/c1cc(Br)ccc1O	-7.2	-18.0	nt	i	17.2	0.5	-0.3	2.8
COc1ccc(CCNC(=O)[C@@H](NC(=O)N2CC(=O)Nc3ccccc32)C(C)C)cc1OC	4.1	2.7	-1.8	i	-12.1	2.4	-12.1	2.3
COc1ccc(CCCc2n[nH]c(=S)o2)c(C)c1	3.0	0.7	nt	i	-13.2	-0.7	7.3	3.3
Cc1cccc(NS(=O)(=O)c2ccc(C(=O)NCC3CCCO3)cc2)c1C (stereo unspecified)	0.8	24.4	-6.1	i	-5.4	-0.2	-0.1	-6.0
C=CCNC(=O)CN1CCC(O)(c2ccccc2)CC1	-0.8	nt	-0.6	i	1.6	0.8	4.6	-0.6
O=C(CN1CCCC1)Nc1cc(C(F)(F)F)cc(C(F)(F)F)c1	-6.8	11.9	nt	i	3.2	2.7	-8.8	5.2
CCC(=O)N1CCc2cc(S(=O)(=O)NC(C(=O)N3CCc4ccccc4C3)C(C)C)ccc21 (stereo unspecified)	-5.5	-43.2	-21.4	nt	nt	3.2	-4.1	6.1
CN(C)CCCNC(NC(=O)/C=C/c1ccccc1)C(Cl)(Cl)Cl (stereo unspecified)	13.3	0.1	nt	i	4.7	-0.3	-6.9	4.0
CCCCCCN1CC(O)=C(c2ccccc2)C1=N	1.7	nt	1.4	i	4.7	3.5	-7.6	-0.8
COC(=O)COc1ccc(S(=O)(=O)N2CCN(c3ccc(OC)cc3)CC2)cc1	-8.6	-15.9	nt	i	-14.9	1.1	3.3	1.4
COc1cc(C(=O)N/N=C/c2ccc(OC)c(CN3CCN(c4ccc(F)cc4)CC3)c2)ccc1O	13.0	5.9	nt	i	2.5	6.0	0.1	0.1
Cc1ccccc1C(=O)Nc1nnc(-c2ccncc2)o1	6.0	-5.2	nt	i	-12.6	-5.5	8.5	1.7
COc1cccc(N/C=C(\C#N)c2ccc(OCCCF)cc2)c1	-2.3	nt	-6.1	i	-14.7	6.1	-3.0	0.4
CCCCN1C=C(C(=O)c2ccccc2)C(=O)CC1	nt	-31.6	2.1	nt	nt	5.0	nt	9.6
CCOc1ccc(NC(=O)CNC(=O)c2ccco2)cc1	2.0	3.9	-19.0	i	-9.1	-2.0	0.6	-2.4
Cc1ccccc1OCCC(=O)OCC(=O)Nc1c(F)cccc1F	nt	-20.2	-2.7	i	-7.5	6.6	nt	-1.4
CCOC(=O)c1[nH]ncc1CN1CCCC(C(=O)c2ccc(SC)cc2)C1 (stereo unspecified)	-0.4	-2.7	-4.5	i	-5.8	1.5	-2.8	-0.5
CC1=C(C)N(C)[C@H](c2ccccc2Br)[C@H](O)C1=O	nt	-0.3	-3.9	nt	nt	3.5	nt	8.9
COc1ccccc1NC(=O)Nc1ccnn1C1CCN(C(=O)c2cscn2)CC1	2.2	-10.1	2.3	i	8.7	1.8	0.4	7.0
CCn1c(SCc2nc(-c3ccccc3)no2)nnc1-c1ccco1	4.0	-11.8	-2.6	i	0.5	-2.0	4.2	-4.5
N#CC1=C(SCC(N)=O)NC2=C(C(=O)c3ccccc32)C1c1ccc(Cl)cc1 (stereo unspecified)	1.1	-20.1	0.1	i	50.9	-2.7	-12.4	-8.7
Cc1cccn2c(NC(=O)c3cccs3)c(-c3ccccc3)nc12	2.1	-11.6	-12.3	i	-4.1	-0.8	-8.0	2.6
CCCCc1ccc(NC(=O)COC(=O)c2ccc3ncsc3c2)cc1	nt	-7.2	-20.9	nt	nt	4.3	nt	0.3
O=C(O)CSCC(=O)Nc1ccccc1SCCS(=O)(=O)c1ccc(Cl)cc1	11.1	11.1	-7.0	i	1.4	-1.5	-4.6	-2.0
O=C(CN1C(=O)S/C(=C\C=C\c2ccccc2)C1=O)Nc1ccc(C(=O)O)cc1	7.2	-9.6	-12.1	i	4.6	-1.7	22.3	1.3
O=C(Cn1c(-c2cscn2)nc2ccccc21)Nc1cc(F)ccc1F	11.0	28.4	-19.9	i	-7.1	6.6	0.6	2.1
COC(=O)C1CCN(C(=O)CC(NC(=O)C(F)(F)F)c2cccs2)CC1 (stereo unspecified)	1.8	-0.4	-12.6	i	3.7	-3.7	-1.9	-8.4
O=C(NCc1ccco1)c1cc(Cl)nc(Cl)c1	10.1	-6.5	-7.0	i	-2.8	0.6	-8.0	-0.8

Compound	PABP FP inh	Env fusion inh	UUG fidelity	Rce1 inhib	CSC inhib	MT1-MMP act inh	eIF4H FP inh	MT1-MMP act inh RFP
COC(=O)c1cccc(NC(=O)CCc2ccccc2)c1	-4.0	-11.9	3.6	i	-11.0	2.1	-6.0	2.9
O=C(CSc1nncc2ccccc12)Nc1ccccc1	0.8	12.1	nt	i	-2.7	-1.5	-4.6	2.1
COc1cc(OC)cc(C(=O)N2CCN(C(=O)c3cccnc3)CC2)c1	3.1	1.4	-4.4	i	-10.7	-1.0	8.3	0.3
COc1ccc([N+](=O)[O-])cc1NC(=O)CSc1nccc(C)n1	1.9	25.7	nt	i	-3.2	2.8	13.8	0.3
Oc1ccc2c(c1)c1ccccc1c1ncccc21	nt	-61.4	-24.1	nt	nt	6.6	nt	-2.1
COc1ccc(OC)c(S(=O)(=O)NC2CCCCNC2=O)c1 (stereo unspecified)	-5.1	-2.0	-2.6	i	nt	8.5	-3.6	6.6
COc1ccc2c(c1)-c1ccccc1S(=O)(=O)N2C	-2.2	-11.2	0.1	i	-8.2	4.5	-6.1	0.0
CCOc1cc(N2CCOCC2)c(OCC)cc1NC(=O)COC(=O)[C@H](Cc1c[nH]c2ccccc12)NC(C)=O	-4.4	nt	-4.9	i	-2.9	4.8	7.5	6.6
O=[N+]([O-])c1nn(-c2ccc(Cl)cc2)n(O)c1=NCc1ccncc1	1.1	-18.6	4.3	i	3.9	2.0	-7.9	0.0
Cc1ccc(C)c(S(=O)(=O)Nc2ccccc2C(=O)Nc2ccccc2N2CCOCC2)c1	3.7	-22.7	-13.4	i	13.9	-7.5	6.4	-13.2
CCc1ccc(NC(=S)N(Cc2ccc(Cl)cc2)Cc2ccc(C(=O)O)cc2)cc1	-2.3	-10.9	nt	i	-0.6	3.6	-7.4	1.0
COc1ccccc1NC(=S)NNC(=O)c1cc(C)nn1C	8.1	nt	-25.4	i	-4.1	-1.2	-0.8	-1.7
CCNC(=S)N=Nc1c(O)[nH]c2ccc(C(C)C)cc12	-2.5	17.2	-10.6	i	nt	3.3	8.5	-3.4
CCC(=O)NCc1csc(-c2cccs2)n1	3.3	-0.9	nt	i	-9.2	5.4	-8.2	9.6
O=S(=O)(c1ccc(F)cc1)N1CCN(c2nc(-c3ccc(F)cc3)cs2)CC1	0.5	nt	-15.6	i	26.2	3.5	2.0	-1.7
O=C(CC(=O)N/N=C\c1ccccc1[N+](=O)[O-])NCCc1ccccc1	6.9	5.2	-5.3	i	-8.6	3.2	-15.9	0.7
COc1cc(S(=O)(=O)N2CCCCC2)ccc1NC(=O)/C=C/c1ccccc1	-0.3	18.6	5.9	i	-7.6	-1.4	-11.1	-7.0
COc1ccc(-c2cc(C(F)(F)F)nc(SCC(=O)NCc3cccs3)n2)cc1	-0.9	56.4*	-20.0	i	nt	-2.7	-4.1	-3.7
COc1ccc(Cn2nnnc2C(c2cccs2)N2CCN(c3ccccc3)CC2)cc1 (stereo unspecified)	2.4	nt	-14.3	i	-1.2	-4.5	4.4	-10.0
CCCCCCNCC(=O)N1CCC(Cc2ccccc2)CC1	2.5	-0.1	34.1	i	-12.3	1.9	4.5	-2.8
COCCN(Cc1ccccc1)C(=O)c1cccc(S(=O)(=O)N2CCN(Cc3ccccc3)CC2)c1	nt	-1.8	4.8	nt	nt	-2.5	nt	-5.8
O=C(CSc1nccn1Cc1ccc(F)cc1)Nc1ccc(F)cc1F	25.4	nt	-15.2	i	-8.5	5.4	5.9	-2.1
NS(=O)(=O)c1ccc(NC(=O)COC(=O)CCc2ccc(S(=O)(=O)N3CCOCC3)cc2)cc1	-1.8	-36.3	-8.8	i	-3.6	1.6	-6.3	6.7
CCn1nnc(C(=O)O)c1C(=O)O	-3.8	-111.5	nt	i	nt	1.1	20.4	0.1
Cc1cccc(NC(=O)CSCC(=O)Nc2ccc(S(=O)(=O)N3CCCC3)cc2)c1	nt	6.6	nt	i	-6.3	-0.1	nt	0.9
O=C(N/N=C/c1cccc(Oc2ccccc2)c1)c1ccccc1F	-11.0	19.1	-18.2	i	59.6	-4.1	2.4	-7.3
O=C(Nc1ccnn1C1CCN(Cc2cccnc2)CC1)c1ccccc1Cl	6.0	nt	-6.0	i	-3.6	0.7	-0.5	3.7
CCN(CC)CCN(C(=O)c1c(F)cccc1F)c1nc2cc(C)cc(C)c2s1	-3.9	28.2	nt	i	26.5	3.1	3.0	0.6
Cc1cc(NC(=O)c2cc(-c3cccs3)nc3ccccc23)no1	-2.9	-92.8	-15.0	i	36.9	-8.5	7.3	-16.9
O=S(=O)(NC1CCCCC1)c1ccc(-c2csnn2)s1	-11.8	4.8	-9.0	i	-12.1	0.7	-0.5	0.2

Arranged by value in MT1-MMP act inh RFP (descending): 3 from the list above
Structure | Env fusion inh | UUG fidelity | Rce1 inhib | MT1-MMP act inh | MT1-MMP act inh RFP
CCC(=O)NCc1csc(-c2cccs2)n1 | -0.9 | nt | i | 5.4 | 9.6
COc1ccc(OC)c(S(=O)(=O)NC2CCCCNC2=O)c1 (stereo unspecified) | -2.0 | -2.6 | i | 8.5 | 6.6
CCN(CC)CCN(C(=O)c1c(F)cccc1F)c1nc2cc(C)cc(C)c2s1 | 28.2 | nt | i | 3.1 | 0.6

(further entries)
Compound	PABP FP inh	Env fusion inh	UUG fidelity	Rce1 inhib	CSC inhib	MT1-MMP act inh	eIF4H FP inh	MT1-MMP act inh RFP
Oc1[nH]c(=S)sc1C=C1N=c2ccccc2=N1	6.6	-33.3	2.9	i	-9.9	5.5	-7.7	4.9
N#Cc1c(NC(=O)CN2CCN(S(=O)(=O)c3ccc4c(c3)OCCO4)CC2)sc2c1CCC2	11.6	-13.2	-28.0	nt	nt	-8.3	13.2	-1.1
Nc1nnc(SCC(=O)NC2CCCC2)s1	-3.2	-19.6	-7.8	i	-3.7	-0.8	6.2	2.9
CCOc1c2ccc(C(=O)NCc3ccc(C(F)(F)F)cc3C(F)(F)F)cc2nn1C	-0.8	0.1	-4.9	i	47.2	2.4	-3.4	-3.6
Cc1ccccc1OCC(=O)NC1CCCCCCC1	1.5	-12.7	2.3	i	nt	-2.6	-1.5	-3.7
COc1ccc(N2CCN(C(=O)c3ccc(NS(=O)(=O)c4cccs4)cc3)CC2)cc1	-13.2	17.4	-10.9	i	3.2	-1.3	-5.4	-6.8
O=C(CSc1nnc(COc2ccccc2)o1)c1ccccc1	-5.8	-26.1	-4.1	i	-3.1	-2.5	6.5	6.5
CS(=O)(=O)Nc1ccc(C(=O)NCCC2=CCCCC2)cc1	8.4	-20.2	-29.1	i	-8.4	-9.9	-5.2	-2.0
Cc1ccc(NC(=O)COC(=O)/C=C/c2cccs2)c(C)c1	11.9	15.4	nt	i	-16.8	3.3	8.8	4.4
COc1ccc(S(=O)(=O)N(CC(=O)Nc2ccccc2C(=O)N2CCOCC2)c2ccc(F)cc2)cc1	-1.8	-64.7	15.6	i	-2.0	-5.2	-10.3	-3.5
Cc1cccc(C(=O)NC(=S)NNC(=O)COc2c(C)cccc2C)c1	-3.2	-25.5	nt	i	17.7	1.1	2.8	-3.0
COc1ccc(-c2sccc2C(C)C(=O)O)cc1 (stereo unspecified)	-10.2	-49.7	-14.6	i	-7.4	-2.7	-6.5	-0.8
COC(=O)c1cc2ccsc2n1Cc1cccc(F)c1	8.7	nt	nt	i	23.1	10.2	5.3	12.6
